Bioassay records (PubChem)
OX1R antagonist: OX1R (HCRTR1) antagonists, primary screen, fluorescence, CHO/OX1R cells, Fluo-8 calcium, orexin A. Fluo-8 calcium fluorescence. inhibition, % at 5 µM. 330,000 tested, 0.43% active;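 active means inhibition above its plate's threshold, mean inhibition of all tested compounds on the plate plus 3 SD, cut at about 37% in these data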;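 further: 0% = orexin A challenge wells and 100% = SB-334867-A antagonist wells; not every result past the cut was called active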
Target sequence (O43613 whole entry, looked up): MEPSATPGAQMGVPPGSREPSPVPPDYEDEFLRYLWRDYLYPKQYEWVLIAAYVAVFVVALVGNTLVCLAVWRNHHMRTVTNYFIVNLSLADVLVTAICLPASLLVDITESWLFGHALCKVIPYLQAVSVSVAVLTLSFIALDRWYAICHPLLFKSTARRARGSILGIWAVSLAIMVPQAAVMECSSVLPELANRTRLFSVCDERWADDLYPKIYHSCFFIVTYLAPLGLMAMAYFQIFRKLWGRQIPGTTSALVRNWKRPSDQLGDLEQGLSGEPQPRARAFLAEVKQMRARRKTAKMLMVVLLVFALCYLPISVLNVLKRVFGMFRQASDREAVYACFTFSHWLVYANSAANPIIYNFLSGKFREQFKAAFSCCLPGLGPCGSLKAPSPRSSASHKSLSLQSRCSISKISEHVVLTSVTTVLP
* marks the source's active call; other numbers are inactive results; & = joins results of further samples. Some of the compounds tested, and most or all hits are left out here.

SMILES | OX1R antagonist
COc1ccc(Nc2c3c(nc4c(-c5ccccc5)c(C)nn24)CCC3)cc1 | -25.0
COc1ccc(-c2noc(CSc3nc(N)c(-c4ccccc4)c(=O)[nH]3)n2)cc1 | -14.8
CC(C)[C@H](NC(=O)c1ccco1)C(=O)OCC(=O)c1ccc2c(c1)NC(=O)CO2 | -19.7
COc1ccc(NC(=O)Cc2cccc(F)c2)cc1S(=O)(=O)Nc1ccccc1Cl | 1.4
Cc1ccc(C(=O)N/C(=C/c2cccs2)C(=O)NCCc2c[nH]c3ccccc23)cc1 | -26.1
CC(Oc1ccc(C(=O)NCCc2ccccc2)cc1)C(=O)O (configuration not stated) | 5.1
O=[N+]([O-])c1ccc(N(CCO)Cc2ccccc2)c([N+](=O)[O-])c1 | 8.2
Cc1ccc2cc(C)c(SCC(=O)Nc3ccc(S(=O)(=O)N4CCCC4)cc3)nc2c1 | -9.0
CCOC(=O)CCc1c(C)c(C#N)c2nc3ccccc3n2c1-n1ccnc1C | 5.8
CN(CC(=O)NCc1ccc(F)cc1)S(=O)(=O)c1ccc2c(c1)c(=O)n(C)c(=O)n2C | -35.3
COc1ccc(C2N=C(c3ccccc3)NC(c3ccccc3)=N2)cc1 | -25.5
O=C(CCC(F)(F)F)N1CCCC(CO)(CCc2ccccc2)C1 (configuration not stated) | -17.5
CCC(CO)NC1=C([N+](=O)[O-])C(=O)CC(C)(C)C1 (configuration not stated) | -9.3
CCOC(=O)N1CCN(c2c(NCc3ccc(Cl)cc3)c(=O)c2=O)CC1 | -21.1
O=C(NCc1ccccc1)C1=C[C@H](c2ccc(C(F)(F)F)cc2)C[C@H](OCCCCO)O1 | -21.9
O=C(O)CCC(=O)Nc1ccc(Br)c(Cl)c1 | 2.3
COc1ccc(CCNC(=O)C2CC(c3c(Cl)cccc3Cl)=NO2)cc1 (configuration not stated) | -27.9
COc1ccc2c(c1)O[C@H](c1ccc3c(c1)OCO3)[C@@H](OC(=O)N[C@H]1CCCc3ccccc31)C2=O | -34.2
CC(=O)c1cccc(N2Cc3ccccc3C2=NC(=O)CCl)c1 | -23.8
COc1ccc2nc(NC(=O)C3CCCN(S(=O)(=O)c4cccs4)C3)sc2c1 (configuration not stated) | 15.7

An excerpt of these results, as labelled records.
> CCOC(=O)CCc1c(C)c(C#N)c2nc3ccccc3n2c1-n1ccnc1C
  OX1R antagonist: 5.8

> CN(CC(=O)NCc1ccc(F)cc1)S(=O)(=O)c1ccc2c(c1)c(=O)n(C)c(=O)n2C
  OX1R antagonist: -35.3

> COc1ccc(C2N=C(c3ccccc3)NC(c3ccccc3)=N2)cc1
  OX1R antagonist: -25.5

> O=C(CCC(F)(F)F)N1CCCC(CO)(CCc2ccccc2)C1 (configuration not stated)
  OX1R antagonist: -17.5

Following part.
SMILES | OX1R antagonist
COCCN1Cc2cccc(C(=O)Nc3ccc(S(=O)(=O)N4CCCCCC4)cc3)c2C1=O | -14.7
Cc1ccc(NC(=O)CSc2nc3[nH]ncc3c(=O)[nH]2)c(C)c1 | -5.7
Cc1ccc(N2CCN(C(=O)CCc3nc4ccccc4[nH]3)CC2)c(C)c1 | -26.0
NC(N)=NC1=NC(=O)/C(=C/c2ccccc2-n2cccn2)S1 | 3.9
COC(=O)C(Cc1ccccc1)NC(=O)CNC(=O)c1ccccc1OC (configuration not stated) | -16.9
COc1ccc(-n2ncc(C(C)NS(=O)(=O)c3ccc(C(C)=O)cc3)c2C)cc1 (configuration not stated) | -26.7
O=C(Oc1oc(-c2ccco2)nc1C=Nc1ccccc1)c1ccco1 | -1.6
Cc1ccccc1OCC(O)Cn1c(Br)nc2c1c(=O)n(C)c(=O)n2C (configuration not stated) | -20.8
C/C(=N\NC(=O)c1ccc(NS(=O)(=O)c2cccs2)cc1)c1ccccc1 | -8.1
COc1ccc(N(CC(=O)Nc2cc(OC)ccc2OC)S(C)(=O)=O)cc1 | -6.2
O=C(CSc1nc2cc(C(F)(F)F)ccc2n1Cc1ccccc1)NC1CCS(=O)(=O)C1 (configuration not stated) | -15.3
C/C=C\C=C\C(=O)Nc1cccc(C2=NOC3(C2)C[C@H](C(N)=O)N(C(=O)c2ccccc2C(=O)c2ccccc2)C3)c1 (some centres not stated) | -3.5
Fc1ccc(Cn2nnnc2CN2CCN(C3CCCC3)CC2)cc1 | -14.4
Cc1c(CCC(=O)N2CCC(C(=O)NCCCCCC(=O)O)CC2)c(=O)oc2cc3oc4c(c3cc12)CCCC4 | -5.3
O=C(NCCSCc1ccco1)Nc1cc(Cl)cc(Cl)c1 | 7.5
CCCCC(CC)CNC(=O)c1ncn[nH]1 (configuration not stated) | -3.9
CC(/C=C1\SC(=S)N(C(C(=O)O)C(C)C)C1=O)=C\c1ccccc1 (configuration not stated) | -5.1
COc1ccc(N2CCN(Cc3nc(N)nc(N4CCCc5ccccc54)n3)CC2)cc1 | -37.7
COc1ccccc1NC(=O)c1ccc(Br)o1 | -19.5
C/C(=N\NC(=O)CN1CCN(S(=O)(=O)c2ccc(C)cc2)CC1)c1ccncc1 | -20.7

4 entries from above, with the structure last:
OX1R antagonist	molecule
-6.2	COc1ccc(N(CC(=O)Nc2cc(OC)ccc2OC)S(C)(=O)=O)cc1
-15.3	O=C(CSc1nc2cc(C(F)(F)F)ccc2n1Cc1ccccc1)NC1CCS(=O)(=O)C1 (configuration not stated)
-1.6	O=C(Oc1oc(-c2ccco2)nc1C=Nc1ccccc1)c1ccco1
7.5	O=C(NCCSCc1ccco1)Nc1cc(Cl)cc(Cl)c1

The listing continues.
SMILES | OX1R antagonist
COc1ccccc1/C=C/CN1CCCC(CCC(=O)NCc2ccccc2F)C1 (configuration not stated) | -18.7
CCOC(=O)CC(=O)COc1nc2cc3c(nc2o1)CCCC3 | -6.4
Cc1cc(C)n2nc(SCc3ccccc3F)nc2n1 | -8.3
O=C(Cn1cnc2sc3c(c2c1=O)CCCC3)NCC(=O)Nc1ccccc1F | -20.9
Cc1cccc(CC(=O)NCCn2c(C)cc3ccccc32)c1 | -12.0
Cc1ccc(/C=N/NC(=O)c2ccoc2C)o1 | -11.0
COc1ccccc1C(=O)N/N=C(\C)CC(=O)Nc1ccc(Nc2ccccc2)cc1 | -15.6
O=C(CCCN1CCC(O)(c2ccc(Cl)cc2)CC1)c1ccc(F)cc1 | -27.2&-26.8
COC(=O)c1nn(-c2ccccc2)c(Cl)c1/C=N/OCc1c(Cl)cccc1Cl | -7.8
O=C(N/N=C/c1ccsc1)c1cc(-c2ccncc2)nc2ccccc12 | -23.4
Cc1ccccc1NC(=O)N1CCN(C(=O)c2ccco2)CC1 | -1.3
CCc1cc(SC#N)cc(C)c1NC(=O)CCl | -11.1
CCOc1ccccc1OCCCCN1CCCC1 | -19.4
O=C1C(=O)N(CC(=O)N2CCCC2)c2ccccc21 | -15.4
O=C(CN(C(=O)CCC(=O)Nc1nccs1)c1ccccc1F)NCCc1ccccc1 | -3.6
Cc1c(NC(=S)Nc2ccccc2C(F)(F)F)cccc1[N+](=O)[O-] | 7.1
CCc1ccccc1NC(=O)COc1ccc2c(=O)c(Oc3cc(C)ccc3C)coc2c1 | -6.8
Cc1ccccc1-c1nc(CS(=O)(=O)CC(=O)N2CCN(C)CC2)c(C)o1 | -29.7
CN1CCN(c2ccc(NC(=O)c3ccc(-c4ccc(Cl)cc4)o3)cc2)CC1 | -20.8
CCOC(=O)C1CCN(C(=O)c2ccccc2NS(=O)(=O)c2ccc(F)c(F)c2)CC1 | -3.6
CC1(CCc2ccccc2)NC(=O)N(CC(=O)O)C1=O (configuration not stated) | 2.2
COc1ccc(CNC(=O)C2CCN(S(=O)(=O)c3ccc4c(c3)CC(C)N4C(=O)C3CC3)CC2)cc1 (configuration not stated) | -19.6
COC(=O)CC1C(=O)NCCN1C(=O)OC(C)(C)C (configuration not stated) | -2.8
CC(C)(C)c1cc(C(=O)NNC(=O)c2ccc(Cl)cc2)no1 | -13.9
COC(=O)NCC(c1ccco1)N1CCN(c2ccc(F)cc2)CC1 (configuration not stated) | -11.0
COC(=O)c1cc(C#N)c(Oc2ccccc2OC)nc1C | -32.3
O=C(COc1ccccc1)Nc1nc(-c2cccs2)cs1 | -3.9
Cc1onc(-c2ccccc2Cl)c1C(=O)N1CCN(C/C=C/c2ccccc2)CC1 | -20.8
Cc1ccc(NC(=O)CNC(C)c2ccccc2)cc1 (configuration not stated) | -18.2
CC1(C)C2CCC1(CS(=O)(=O)NCc1ccc(Cl)cc1Cl)C(=O)C2 (configuration not stated) | -41.1
Cc1ccc(NC(=O)Cn2nnc(-c3ccccc3-n3cnnn3)n2)c(C)c1 | -21.8
CNC(=O)c1c(NC(=O)c2ccc(S(=O)(=O)N3CCCCC3C)cc2)sc2c1CCN(C)C2 (configuration not stated) | -26.7
CSc1cccc(NC(=O)c2cnn3ccccc23)c1 | -15.8
COc1ccc(Br)cc1C(=O)Nc1cccc2ncccc12 | -16.2
O=C(CSc1ncn[nH]1)NCc1ccc(Cl)cc1 | -0.4
COCCNC(=O)c1ccccc1NC(=O)c1ccccc1N(C)S(C)(=O)=O | -3.9
Cc1[nH]c(=S)n(CC2CCCO2)c1C (configuration not stated) | -10.8
Cc1c(NC(=O)C(C)Oc2cccc(Cl)c2)c(=O)n(-c2ccccc2)n1C (configuration not stated) | -9.8
Cc1cccc(C(=O)OCC(=O)Nc2sc3c(c2C#N)CCC3)c1 | -7.1
CC(C)Nc1nc(NC(C)C)nc(N(C#N)CCOc2ccc(Cl)cc2Cl)n1 | -10.9
CCc1ccccc1N(C(=O)c1cccs1)C1C=CS(=O)(=O)C1 (configuration not stated) | -1.5
COc1ccc(NC(=S)Nc2ccccn2)cc1 | -3.0
Cc1cccc(NCC(=O)N/N=C\c2cccn2C)c1 | -13.3
COc1ccc(NC(=O)N(Cc2ccc3c(c2)OCO3)C2CC(=O)N(c3ccc(OC)cc3)C2=O)cc1 (configuration not stated) | -21.7
COc1ccc(/C=N/Nc2ccc([N+](=O)[O-])cc2S(=O)(=O)N2CCN(C)CC2)cc1 | -12.3
COc1ccc(Cl)cc1NC(=O)C1CCCN(c2cc(C)nc3ncnn23)C1 (configuration not stated) | -25.1
Cn1c(Cc2ccc3c(c2)OCO3)nnc1SCC(=O)NC1CCCC1 | -17.7
Cc1ccccc1NC(=O)CN1C(=O)S/C(=C\c2ccc(-c3cccc(C(=O)O)c3C)o2)C1=O | 11.1
CC(C)=CC(=O)Nc1ccccc1C(N)=O | -3.0
Cc1cnc(NC(=O)c2c(Cl)cnn2C)s1 | 10.5
CC1(C)Cc2ccccc2-c2nnc(-c3cccnc3)n21 | 3.2
COC(=O)c1sccc1-n1cccc1C(=O)C(=O)N1CCCC1 | -9.6
CCCN(CCC)Cc1c(C(=O)OCC)nnn1-c1nonc1N | -27.3
COC1CCCCC1NS(=O)(=O)c1ccccc1 (configuration not stated) | -18.6
O=S1(=O)C[C@@H]2N=C(N/N=C/c3ccccc3)S[C@@H]2C1 | -2.1
CCC(CC)NC(=O)COC(=O)c1cccc(C)c1O | -9.6
COc1ccc(C(Cl)=C(c2ccc(OC)cc2)c2ccc(OC)cc2)cc1 | -26.8
CCOc1ccccc1NC(=O)C1=C(C)NC(=O)NC1c1cccc(OC)c1OC (configuration not stated) | -19.6
Nc1ccccc1-c1ccccc1N | -10.2
CN(C)CCCC(C)(O)C(Cc1ccccc1)c1ccccc1 (configuration not stated) | -22.9

Sorted by molar mass (rising): part of the list above.
SMILES | OX1R antagonist
COc1ccc(NC(=S)Nc2ccccn2)cc1 | -3.0
CC1(C)Cc2ccccc2-c2nnc(-c3cccnc3)n21 | 3.2
COc1ccc(NC(=O)N(Cc2ccc3c(c2)OCO3)C2CC(=O)N(c3ccc(OC)cc3)C2=O)cc1 (configuration not stated) | -21.7

Further structures:
SMILES | OX1R antagonist
N#Cc1c(-c2ccccc2)nc(SCC(=O)Nc2ccc(OC(F)(F)Cl)cc2)[nH]c1=O | 4.9
CCN1CCN(C(=O)C2c3cc(OC)c(OC)cc3C(=O)N(C)C2c2ccc(SC)cc2)CC1 (configuration not stated) | -16.7
CS(=O)(=O)N(CC(=O)Nc1ccccc1C(=O)NCc1ccco1)c1ccc2c(c1)OCCO2 | -6.7
CCc1ccc(NC(=O)c2cccnc2)cc1 | 4.9
S=C(NCc1ccccc1)NC1CCCCC1 | -8.7
CS(=O)(=O)N(CC(=O)NCC1CCCO1)Cc1ccc(Cl)cc1 (configuration not stated) | -26.2
CCc1ccc(NC(=O)CCc2ccc(C)o2)cc1 | -19.6
O=C(N=C1SC2CS(=O)(=O)CC2N1c1ccc(Br)cc1)C1CCCO1 (configuration not stated) | -7.3
Cc1ccc(OCCn2cc(Br)c(=O)[nH]c2=O)cc1 | -5.2
O=C1C2C3C=CC(C3)C2C(=O)N1Nc1c(Cl)cc(Cl)cc1Cl (configuration not stated) | -25.4
O=C(Nc1ccncc1)c1cc2ccccc2o1 | -3.6
O=C(Cn1c(=O)n2ncnc2c2c3c(sc21)CCCC3)c1ccccc1 | -20.2
Cc1c(NC(=S)NC(=O)c2ccccc2Cl)c(=O)n(-c2ccccc2)n1C | -20.6
COc1ccc2[nH]c(=O)c(CN(CCCN3CCOCC3)C(=O)NCc3ccccc3)cc2c1 | -11.6
O=C1CN(S(=O)(=O)c2ccccc2)c2ccccc2N1 | 1.1
COc1cccc(C(C)NC(=O)c2c(F)cccc2Cl)c1 (configuration not stated) | -5.7
Cc1cccc(-c2nc(Nc3ccc(N4CCOCC4)cc3)c3ccccc3n2)c1 | -27.9
COc1ccc(-c2cc(C(F)F)n3ncc(C(=O)Nc4cnn(Cc5ccccc5)c4)c3n2)cc1 | -15.3
O=C(NC1CCCCC1)c1sc(N2CCOCC2)nc1-c1ccccc1 | -4.1
